Hsc70: Hsc70 inhibitors, probe displacement, primary screen, biochemical, fluorescence polarization (AID 568); 83,000 tested, under 10 active; Heat shock cognate 71 kDa protein (Homo sapiens); one-dose displacement, % at 20 µM; IC50 in µM for titrated hits; Hsc70 fluorescence polarization, probe displacement; higher % means a stronger effect; strong numbers were not always called active;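 active means displacement above 50% without optical interference and an IC50 on retest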;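 further: ATPase domain with a fluorescein-tagged ATP probe; 0% = vehicle and 100% = excess ADP; read after one hour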
WNV NS2B-NS3 inh: inhibitors of WNV NS2B-NS3 protease, primary screen, biochemical, fluorogenic substrate; 65,000 compounds, 0.18% hits; z-score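 (tested at a level between 10 and 100 µM)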; fluorogenic substrate Ex360/Em465; hits give low values; Genome polyprotein (West Nile virus), P06935;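 active means z-score at -3 or under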;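 further: score is relative to mean and spread of the compound wells of a plate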
Target sequence (P06935 1371-1501 limits assumed): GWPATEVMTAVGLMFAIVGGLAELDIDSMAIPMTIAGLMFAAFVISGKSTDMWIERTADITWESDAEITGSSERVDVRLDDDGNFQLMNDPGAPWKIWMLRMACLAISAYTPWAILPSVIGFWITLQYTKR
Target sequence (P06935 1502-1679 limits assumed): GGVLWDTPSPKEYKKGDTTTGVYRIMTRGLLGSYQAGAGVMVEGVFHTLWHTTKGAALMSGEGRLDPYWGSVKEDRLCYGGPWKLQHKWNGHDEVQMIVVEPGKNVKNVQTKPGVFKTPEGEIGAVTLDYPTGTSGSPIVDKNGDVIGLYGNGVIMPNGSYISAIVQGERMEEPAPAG
MT1-MMP promoter: inhibitors of MT1-MMP promoter transcription, cell-based, luciferase reporter, luminescence (AID 618) | MT1-MMP promoter luciferase reporter cells, luminescence | calls from a first round at 10 µM; hits with a dose series show EC50 in µM | 87,000 compounds, 0.62% hits;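 active means over half of the reporter light lost at 10 µM or EC50 under 50 µM; inactive means the rest and hits that failed the dose series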;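 further: actives suppress MT1-MMP promoter-driven transcription so potencies describe inhibitors; HT1080 fibrosarcoma cells; overnight exposure; toxic or luciferase-blocking compounds were not removed from the actives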
* marks the source's active call; other numbers are inactive results; i = inactive; nt = not tested or not shown. Not all compounds are listed, so the mix of outcomes need not match the whole.

mol	Hsc70	WNV NS2B-NS3 inh	MT1-MMP promoter
Cc1ccc(C(=O)Nc2ccccc2N2CCN(C(=O)C(C)C)CC2)cc1C	-4.6%	0.8	i
Cc1ccc(-c2cnc(NC(=O)CCC(=O)N3CCCCC3)n2C)cc1	0.3%	-0.77	i
Cc1c(NC(=O)c2n[nH]c(=O)c3ccccc23)c(=O)n(-c2ccccc2)n1C	-2.9%	nt	i
O=C(c1ccc2ccccc2n1)N1CCN(c2ccccc2O)CC1	0.9%	nt	i
O=C(c1ccco1)N1CCN(c2c(-c3ccccc3)c3cc(Cl)ccc3[nH]c2=O)CC1	-3.2%	0.36	i
CSc1cccc(NC(=O)Cn2cccc2)c1	1.0%	0.88	i
COCCOC(=O)C1=C(C)OC(N)=C(C#N)C1c1ccco1 (stereo unspecified)	-3.2%	-0.27	i
CCCCOC(=O)Nc1ccc(C(C)C)cc1	2.3%	nt	i
CC(NC(=O)c1cc2c(=O)n(C)c3ccccc3c2n1C)c1ccc2c(c1)OCCO2 (stereo unspecified)	-10%	-0.9	i
O=C(Oc1nsnc1N1CCCCC1)N1CCOCC1	-4.7%	1.3	i
Cc1noc(C)c1CSc1nc2ccccc2n1C	1.0%	0.22	i
Cc1cccc(Nc2nc(N)nc(CN3CCN(Cc4ccc5c(c4)OCO5)CC3)n2)c1	3.1%	0.92	i
Cc1ccc(CNC(=O)C2CCC(=O)N2CCc2ccccc2)cc1 (stereo unspecified)	1.7%	nt	i
COc1ccc(/C(O)=C2/C(=O)C(=O)N(CCCC(=O)O)C2c2ccc(OC)c(OC)c2)cc1 (stereo unspecified)	-2.9%	-0.45	i
CCCc1[nH]nc2c1C(CCc1ccccc1)C(C#N)=C(N)O2 (stereo unspecified)	-4.0%	-0.25	i
COc1ccccc1/C=c1\sc2nc(-c3ccco3)nn2c1=O	-17%	-0.53	i
O=C(c1ccc(N2CCOCC2)cc1)c1cccs1	-2.7%	-1.2	i
CCOC(=O)c1c(-c2ccccc2)oc2ccc(O)c(CN3CCCC3)c12	0.8%	nt	i
O=C(c1ccccc1)N1CCCc2ccccc21	4.1%	nt	i
CCC(C)[C@H](NC(=O)NCc1cccc(OC)c1)C(=O)OC (stereo partly specified)	-3.2%	1.3	i
Cc1ccc(C(=O)CSC2=C(C#N)C(c3ccco3)CC(=O)N2)c(C)c1 (stereo unspecified)	-3.5%	-0.27	i
CCS(=O)(=O)N1Cc2ccccc2CC1C(=O)NC(C)C12CC3CC(CC(C3)C1)C2 (stereo unspecified)	3.4%	nt	i
COc1cc2c(cc1OC)C(C)N(C(=O)C1COc3ccccc3O1)CC2 (stereo unspecified)	-4.1%	0.19	i
COC(=O)[C@@H](NC(=O)Nc1cc(Cl)ccc1C)C(C)C	-3.1%	nt	i
CC(C)(C)n1nc2c(c1NC(=O)c1cccc(C(F)(F)F)c1)CS(=O)C2 (stereo unspecified)	1.5%	-0.62	i
Cc1ccc(S(=O)(=O)N(CC(=O)N2CCN(c3ccccc3F)CC2)C2CCCCC2)cc1	3.4%	nt	i
CSc1nc(C)cc(Oc2ccc(OCCOc3ccccc3)nn2)n1	1.3%	nt	i
COC(=O)C1=C(C)N=C2SC(C)C(=O)N2C1c1ccc(C(=O)OC)cc1 (stereo unspecified)	-1.4%	-0.24	i
CCCc1c(O)nc(SCCN(CC)CC)n(C(=O)c2ccccc2)c1=O	1.2%	-1.7	i
O=C(Cc1c(F)cccc1Cl)Nc1ccncc1	0.1%	0.24	i
Cc1ccc2c(c1)c1c3n2CCN(C(=O)CN2CCN(C)CC2)C3CCC1 (stereo unspecified)	-0.9%	-0.24	i
OC1(C(F)(F)F)CC(O)(C(F)(F)F)n2nc(-c3ccccc3)cc2N1 (stereo unspecified)	-7.4%	-0.71	i
O=C(COC(=O)c1cccnc1Nc1cccc(C(F)(F)F)c1)NCc1ccc2c(c1)OCO2	5.4%	nt	i
CC(=O)Nc1ccc(N2S(=O)(=O)c3ccccc3S2(=O)=O)cc1	0.9%	-0.51	i
COc1ccc(-n2c(Cc3cccn3C)nnc2SCC(=O)NCc2ccco2)cc1	2.0%	1.5	i
Cc1nnc(NC(=O)CCC(=O)N2CCN(CCc3ccccc3)CC2)s1	4.8%	-0.75	i
CCOC(=O)CCP(=O)(O)C(C)(O)c1ccccc1 (stereo unspecified)	4.6%	nt	i
CNC(=O)c1nc[nH]c1C(=O)NC	0.5%	nt	i
O=C(NCCN1CCOCC1)c1cc2c(=O)n3ccccc3nc2n1Cc1ccccc1	-0.1%	3.9	i
O=C(CCN1C(=O)c2ccccc2C1=O)NCCN1CCOCC1	2.1%	0.07	i
CCOc1ccc(N2C(=O)CC(Sc3nc(C)cc(C)c3C#N)C2=O)cc1 (stereo unspecified)	1.8%	-1.2	i
COc1cc2c(cc1OC)CN(C(=O)CSc1nc(C)cc(C)c1C#N)CC2	-1.5%	nt	i
COc1ccc(-c2nsc3c(N4CCN(S(=O)(=O)c5ccccc5)CC4)ncnc23)cc1	-4.6%	1.2	i
O=C(CNC(=O)C1CCCCC1)NCCCO	2.2%	-1.2	i
CC(C)(C)C1CCc2onc(C(=O)NC3CCCC3)c2C1 (stereo unspecified)	5.3%	0.64	i
CCCOc1ccc(C2C(=O)N(C3CCCCC3)CC(=O)N2CCC)cc1OC (stereo unspecified)	-8.4%	-1.6	i
CCCCS(=O)CC(CS(=O)CCCC)OC(=O)c1ccc(C)cc1 (stereo unspecified)	-6.6%	-0.8	i
CCCNC(=O)CCNC(=O)c1ccc(C(C)(C)C)cc1	-0.2%	-0.88	i
c1ccc(CSc2ncn(-c3ccccc3)n2)cc1	-6.5%	-1.3	i
COc1cc(C(=O)Nc2ccc(S(=O)(=O)NC(C)(C)C)cc2)cc(OC)c1OC	3.7%	nt	i

Next part
mol	Hsc70	WNV NS2B-NS3 inh	MT1-MMP promoter
COc1ccccc1OCc1nc(C#N)c(NCc2ccco2)o1	-5.0%	-0.36	i
COC(=O)c1cccnc1SCc1ccccc1	0.7%	nt	i
CC1CCN(C(=O)CSc2nnc(-c3ccc(S(=O)(=O)N4CCOCC4)cc3)n2C)CC1	4.0%	-0.55	i
CCOC(=O)N1CCC(NC(=O)C2CCN(S(=O)(=O)c3cccc4cccnc34)CC2)CC1	2.1%	-0.34	i
COc1ccc(C(C)(C)C)cc1NC(=O)C1C2C=CC(C2)C1C(=O)O (stereo unspecified)	-1.8%	-1.1	i
O=C(CCS(=O)(=O)c1ccccc1)Nc1nc2c(s1)CCCC2	3.2%	-0.04	i
O=S(=O)(NCC1CCCO1)c1ccc2oc3ccc(S(=O)(=O)NCC4CCCO4)cc3c2c1 (stereo unspecified)	0.2%	1	i
Cc1cc(C)n(-c2ccc(C(=O)OCC(=O)N(CC(C)C)C3CCS(=O)(=O)C3)cc2)n1 (stereo unspecified)	-0.4%	1.2	i
CCOc1cc(N2CCOCC2)c(OCC)cc1NC(=O)Cn1[nH]c(=O)c2ccccc2c1=O	-4.4%	0.31	i
O=C(Cc1cccs1)N(Cc1ccco1)C1(C(=O)NC2CCCC2)CCCCC1	-4.7%	0.81	i
CC1Cc2ccccc2N1S(=O)(=O)c1ccc2c(c1)n(C)c(=O)c(=O)n2C (stereo unspecified)	0.9%	-0.04	i
CN(C)S(=O)(=O)Nc1ccc(Oc2ccccc2)cc1	0.3%	-0.8	i
O=C(NCc1ccncc1)c1ccc(Br)o1	-4.5%	-0.25	i
Cc1occc1-c1nnc(SCC(=O)Nc2nccs2)n1Cc1ccco1	-0.7%	0.97	i
COC(=O)CSc1cc(SCC(=O)OC)c(C#N)c(SCC(=O)OC)c1	2.2%	-0.2	i
COc1cc(C(=O)OCC(=O)NCc2ccco2)cc(OC)c1OC	-2.3%	0.43	i
Oc1ccc(Nc2nc(-c3ccc(O)cc3)cs2)cc1	-5.0%	0.1	i
COc1ccccc1C(=O)Nc1ccc(S(=O)(=O)N2CCCC2)cc1	-5.3%	0.07	i
C=CCn1c(SC(C)C(=O)NCc2ccc3c(c2)OCO3)nc2scc(-c3ccccc3)c2c1=O (stereo unspecified)	2.6%	nt	i
COc1ccc(C(=O)Nc2cc(Cl)cc(Cl)c2)c(OC)n1	-4.6%	0.4	i
C=CCn1c(SCc2c(F)cccc2Cl)nnc1-c1ccco1	-2.2%	-0.06	i
Cc1noc(C)c1COc1ccc(C(=O)OCC(=O)NC2CCCCC2C)cc1 (stereo unspecified)	1.2%	nt	i
C=CCn1c(=S)[nH]c2sc3c(c2c1=O)CCC3	-2.3%	nt	i
O=C(Nc1ccc(Cl)cc1)OCCn1nnnc1C(c1ccccc1Cl)N1CCOCC1 (stereo unspecified)	2.7%	nt	i
CSc1ccc(/C=N/n2nnnc2N)cc1	12%	1.8	i

Remaining list, next part.
structure	Hsc70	WNV NS2B-NS3 inh	MT1-MMP promoter
O=C(c1cc(-c2cccnc2)nc2ccc(Br)cc12)N1CCC2(CC1)OCCO2	-1.3%	-1.1	i
O=C(c1ccccc1)n1ccn(-c2ccccc2)c1=S	-1.8%	nt	i
O=C(CSc1ccc2nnc(-c3cccnc3)n2n1)NCc1ccco1	-2.9%	-0.23	i
Fc1ccc(C(c2nnnn2Cc2ccccc2)N2CCSCC2)cc1 (stereo unspecified)	-0.9%	-0.99	i
O=C(NCc1ccc2c(c1)OCO2)c1ccc(-c2ccc(Cl)cc2)o1	-12%	-2.2	i
Cc1cc(C)cc(OCc2nnc(SCC(=O)OC3CCCCC3)o2)c1	2.9%	-0.68	i
O=C(Nc1nc(-c2cccs2)cs1)c1ccc(Cl)cc1	-0.4%	nt	i
CC(C)(C)OC(=O)N1CC(O)CC1C(=O)OCC(=O)c1ccc(Cl)cc1 (stereo unspecified)	-0.2%	-0.94	i
CCn1c(COc2ccccc2)nnc1SCc1ccc(C#N)cc1	3.4%	0.44	i
CC(=O)Nc1cc2c(cc1C(=O)C(C)C)OCCO2	4.0%	0.14	i
NC(=O)N1CC(O)CC1C(=O)Nc1ccc(Cl)c(Cl)c1 (stereo unspecified)	-2.9%	0.62	i
CC(C)C(c1nnnn1CC1CCCO1)N1CCN(C2CCCC2)CC1 (stereo unspecified)	6.9%	0.8	i
CCSc1nncn1/N=C/c1ccc(OC)c(OC)c1	-1.3%	-0.75	i
Cc1ccc(/C=c2\sc3nc(-c4cccnc4)nn3c2=O)cc1	-14%	-0.99	i
CCCc1cc(=O)[nH]c(SCc2ccc(Cl)cc2)n1	2.1%	nt	i
CC(=O)Nc1cccc(OCC(=O)Nc2ccccc2)c1	2.6%	0.25	i
O=C(CCN1C(=O)c2ccccc2S1(=O)=O)Nc1ccc2c(c1)OCCO2	2.9%	-0.89	i
CCOc1ccc(-c2nnc(SCc3nc4ccccc4[nH]3)n2N)cc1	2.2%	nt	i
CCOC(=O)c1ccc(N2C(=O)C3CC=C(C)CC3C2=O)cc1 (stereo unspecified)	-4.1%	-1.1	i
COc1ccc(-c2ccnc(SCC(=O)Nc3ccccn3)n2)cc1	3.7%	nt	i
CC1(C)C(=O)Nc2ccccc2N1C(=O)COC(=O)C1CCCCC1	0.5%	nt	i
COc1ccc2oc(=O)c(-c3nc(C)cs3)cc2c1	-34%	-0.37	i
CC(=O)c1ccc(Nc2cc(C)nc3nc(C)nn23)cc1	2.1%	0.23	i
CCOC(=O)N1CCN(S(=O)(=O)c2cc3c(cc2C)NC(=O)CO3)CC1	8.2%	-0.35	i
CC1(C)Cc2c(c(=S)nc(-c3ccccc3)n2CCN2CCOCC2)CO1	1.1%	-1.5	i
O=S(=O)(c1ccc2ccccc2c1)N1CCN(S(=O)(=O)N2CCCCC2)CC1	-3.1%	nt	i
COc1ccc(CCNC2=C(Cl)C(=O)N(CCc3ccc(OC)c(OC)c3)C2=O)cc1OC	-3.5%	nt	i
COc1ccccc1-n1cnc2cc(NC(=O)c3ccco3)ccc21	-0.7%	nt	i
COc1cc(C2Nc3ccc4ncccc4c3C3=C2C(=O)CCC3)cc(OC)c1O (stereo unspecified)	0.1%	-0.45	i
CNc1sc(C(=O)c2ccc(F)cc2)c(N)c1-c1nc2ccccc2s1	-0.4%	nt	i

Some of the entries so far, with each value named:
Structure: O=S(=O)(c1ccc2ccccc2c1)N1CCN(S(=O)(=O)N2CCCCC2)CC1
  Hsc70: -3.1%
  WNV NS2B-NS3 inh: nt
  MT1-MMP promoter: i

Structure: COc1ccc(CCNC2=C(Cl)C(=O)N(CCc3ccc(OC)c(OC)c3)C2=O)cc1OC
  Hsc70: -3.5%
  WNV NS2B-NS3 inh: nt
  MT1-MMP promoter: i

Structure: COc1ccccc1-n1cnc2cc(NC(=O)c3ccco3)ccc21
  Hsc70: -0.7%
  WNV NS2B-NS3 inh: nt
  MT1-MMP promoter: i

Structure: COc1cc(C2Nc3ccc4ncccc4c3C3=C2C(=O)CCC3)cc(OC)c1O (stereo unspecified)
  Hsc70: 0.1%
  WNV NS2B-NS3 inh: -0.45
  MT1-MMP promoter: i
